Screening data as filed in PubChem BioAssay.
Vaccinia pol inh – inhibitors of vaccinia virus processive DNA synthesis (E9 polymerase) | AID 493162 | normalized absorbance, % (test concentration not listed) | 46,000 compounds, 0.94% hits | in vitro processive DNA synthesis, absorbance read-out; stronger effect = lower value; some inactives read as strong as hits;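 active = replicate mean up to 90% and picked by the depositor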;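 note: 100% = median of the test wells of a plate; 100 nL library stock went into each well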
Starred values were filed as active, the others as inactive. The list is partial (hit frequency here may not be typical).

SMILES	Vaccinia pol inh
CCc1ccc(NC(=O)CSc2ccc3nnc(-c4ccccn4)n3n2)cc1	99.8
CCn1c(=O)cc(SCC(=O)N(C)Cc2ccccc2)c2ccccc21	103.1
N#Cc1ccccc1NC(=O)CSc1ccccc1	104.7
O=c1c2ccccc2nc(-c2ccncc2)n1-c1ccc(Cl)cc1	82.3
S=c1nc(-c2ccccc2)n(-c2ccc(Br)cc2)c2c1CCCC2	100.4
COc1cc(C)c(C)cc1S(=O)(=O)NC1CC(C)(C)NC(C)(C)C1	110.8
CC(C)CC(C(=O)O)N1C(=O)C2C3C=CC(C3)C2C1=O (stereo not drawn)	99.5
COc1ccc(OCC(=O)N2CCN(S(=O)(=O)c3ccc(OC)cc3)CC2)cc1	100.2
O=C(NCCOC12CC3CC(CC(C3)C1)C2)c1cccc(Br)c1	99.4
Brc1cccc(-c2nnc(CN3CCOCC3)o2)c1	91.1
O=C(/C=C/c1ccc(Br)o1)OCC(=O)N1CCCc2ccccc21	102.1
O=S(=O)(Cc1ccc(Cl)cc1)N1C=CC(C(F)(F)F)=NCC1	81.2
CC12CC3(C)CC(CC(=O)O)(C1)CC(CC(=O)O)(C2)C3	97.0
CCOC(=O)C1SC2(C(F)(F)F)CC1(O)c1c(C)cc(C)nc1O2 (stereo not drawn)	96.9
Cn1c(CCN(Cc2ccco2)S(=O)(=O)c2ccc(Cl)cc2)n[nH]c1=S	94.8
O=C(O)/C=C/c1ccc(F)cc1	100.6
O=C1C2C(C(=O)N1/N=C/c1cccc(I)c1)C1C=CC2C12CC2 (stereo not drawn)	99.5
O=C(O)CSc1nnc2sc3ccccc3n12	101.7
CCOC1(C)C(=O)c2ccccc2N1Nc1ccccc1C(=O)CC (stereo not drawn)	101.2
Cc1[nH]c2ccccc2c1CCNCc1ccncc1	101.5
O=C1CSc2nnc(-c3ccccc3)n21	90.8
Cc1sc2ncnc(SCc3ccccc3)c2c1C	101.0
COc1ccc(N=Cc2c(C)c(C#N)c3[nH]c4ccccc4n3c2=O)c(OC)c1	101.0
O=C(NCCn1ccc2ccccc21)c1cc(C(F)(F)F)cc(C(F)(F)F)c1	102.0
CC(C)(C)c1ccc(OCCNC(=O)c2cccc(Br)c2)cc1	100.6
COc1ccc(NC(=S)N2CCCN(Cc3ccc(F)cc3)C2)cc1	107.7
CC(C)C1C(C#N)=C(N)Oc2c1c(=O)oc1ccccc21 (stereo not drawn)	92.6
COC(=O)c1c(C)[nH]c(C)c1-c1ccccc1	99.6
COC(=O)COc1cccc2c1ccc1c3c(c(=O)oc12)CCCC3	100.1
CC(C)n1c(=S)[nH]c2c1c(=O)[nH]c(=O)n2C	99.0
CCn1c(C(=O)NC(C)CCc2ccccc2)cc2sccc21 (stereo not drawn)	104.2
O=c1c2ccccc2nc2n1N=C(c1ccc(Br)cc1)CS2	100.1
COc1ccc(N2Cc3cccc(C(=O)N4CCOCC4)c3C2=O)cc1	84.8
CC1CC(C)CN(S(=O)(=O)c2ccc(C(=O)NCc3ccccc3)cc2)C1 (stereo not drawn)	99.6
Cc1c(C)n(C(=O)CSC(=S)N2CCC(C)CC2)c2ccccc12	100.6
NCCCCC(N)C(=O)NC(Cc1ccc(O)cc1)C(=O)NC(CCCCN)C(=O)O (stereo not drawn)	102.6
CCC(C)NC(=O)c1nn(C)c2c1COc1ccccc1-2 (stereo not drawn)	99.9
CSC1=N/C(=C\c2ccccc2C)C(=O)S1	100.6
O=C(Oc1ccc2oc(=O)sc2c1)c1cccc(Cl)c1	100.4
C=CCn1cnc2c(sc3nc(C)cc(C)c32)c1=O	103.0
CC(SC1=NN2CCCC(=O)N=C2S1)c1ccccc1 (stereo not drawn)	96.7
O=C(O)CCc1nc2cc(C(F)(F)F)ccc2n(Cc2ccccc2)c1=O	94.6
C[n+]1c(-c2ccccc2)csc1NC1CCCCC1	94.2
COc1ccc2cc(C(C)C(=O)OCC(=O)N3CCCc4ccccc43)ccc2c1 (stereo not drawn)	99.5
CC1CCCC(C)N1C(=O)COc1cccc(Br)c1 (stereo not drawn)	92.4
CC(C)OC(=O)COc1cc2oc(=O)c3c(c2cc1Cl)CCC3	99.8
CC1CCC(NC(=O)C(NC(=O)C2CCC(C)CC2)C(C)C)CC1 (stereo not drawn)	99.1
CCOC(=O)c1cc(-c2ccnn2C(=O)c2ccccc2)on1	95.9
CC(=Nc1ccc(S(=O)(=O)N2CCCC2)cc1)c1ccccc1	103.0
COc1ccc(/C=C2\C(=O)C3CCN2CC3)cc1	87.9
CCCc1cc2c(=O)c(-c3nc4ccccc4n3C)coc2cc1O	100.5
COC(=O)C1Sc2[nH]c(=O)sc2C(c2ccc(Cl)cc2)C1C(=O)OC (stereo not drawn)	87.6
CCc1cc2c(=O)n(-c3ccccc3)c(SCC(=O)c3ccccc3)nc2s1	99.8
O=C(CSCc1ccc(Cl)cc1)NC1CC1	100.7
Cc1ccccc1OCC(=O)OCC(=O)Nc1cccc(Br)c1	100.4
CCOc1ccc(Nc2nc(N3CCCCC3)nc(N3CCCCC3)n2)cc1	100.4
CCCc1c(C(=O)NC2Cc3ccccc3C2)cnn1-c1ccccc1	87.6
Cc1cc(I)ccc1NC(=O)c1ccc(C(C)(C)C)cc1	98.7
CC(OC(=O)C1CC1)C(=O)Nc1cc(C(F)(F)F)ccc1Cl (stereo not drawn)	106.7
COc1cc(/C=c2/sc3nc4ccccc4n3c2=O)cc(OC)c1O	100.7

Additional compounds follow.
SMILES	Vaccinia pol inh
CCN1C(=O)/C(=C/C=C2/Sc3cc(NC(C)=O)ccc3N2CC)N(c2ccccc2)C1=S	101.0
NC(=O)c1ccc(NC(=O)c2cccc3c2OCCCO3)cc1	100.8
O=C(NCc1cccnc1)c1ccc(COc2cccc3ccccc23)o1	99.8
O=c1c2c(nc3cc(-c4ccco4)[nH]n13)CSC2	97.2
CC(C)(C)c1ccc(NC(=O)Oc2ccccc2N2CCOCC2)cc1	91.7
Brc1ccc(/C=N/c2nc3ccccc3n2CCN2CCCCC2)cc1	100.2
CCCOC(=O)C(C)N1C(=O)/C(=C/c2ccc(OC)cc2)SC1=S (stereo not drawn)	98.1
COc1ccc2c(c1)Cc1sc(NC(=O)c3ccc(OC)c(Br)c3)nc1-2	100.3
Cc1cc(OCC(=O)c2ccc(F)cc2)c2c3c(c(=O)oc2c1)CCC3	102.9
Cn1nnnc1SC(c1ccccc1)c1ccccc1	92.0
O=C(Nc1cccc(C(F)(F)F)c1)N1CCN(C2c3ccccc3-c3ccccc32)CC1	90.2
COc1ccc(C(=O)c2ccccc2)c(OCC(=O)NC23CC4CC(CC(C4)C2)C3)c1	95.0
CC(=O)N(/C=C1\SC(=S)N(CC(F)(F)F)C1=O)c1ccccc1	92.2
CC(C)(C)c1ccccc1OCC(=O)Nc1ccc(OCc2ccccc2)cc1	100.8
Cc1[nH]n(-c2ccccc2)c(=S)c1/C=N/c1nc(-c2ccccc2)cs1	98.6
CCN(CC)CCOc1ccc(/C(C)=N\O)cc1	100.5
Cc1c(C)c(C)c(CSc2ccccc2N)c(C)c1C	100.7
O=NN(CCCl)C(=O)NCCCl	100.4
CC(=O)NCCSc1nnnn1-c1ccccc1	102.0
Cc1ccc(NC(=S)NC(=O)CC2CC(C)(C)OC2=O)cc1 (stereo not drawn)	99.8
CCN(Cc1ccncc1)C(=O)COc1ccccc1O	102.4
CC(NS(=O)(=O)c1ccccc1)C(c1cccs1)N1CCN(c2ccccc2)CC1 (stereo not drawn)	91.3
CCN1CCN(C(c2cccs2)C(C)NS(C)(=O)=O)CC1 (stereo not drawn)	101.5
O=C(O)c1ccccc1C(=O)Nc1ccc(S(=O)(=O)Nc2nccs2)cc1	99.8
N=c1oc2ccc(Cl)cc2cc1C(=O)Nc1ccc(F)cc1	99.4
NC1=NC(=O)C(CC(=O)O)CS1 (stereo not drawn)	98.4
O=C(O)CN(CCc1ccccc1)S(=O)(=O)c1ccccc1	99.7
CCc1nnc(NC(=O)COC(=O)CSc2nc(-c3ccccc3)cc(-c3ccccc3)n2)s1	99.1
CCc1cc2c(SCC(=O)c3ccc(Br)cc3)ncnc2s1	99.6
N#Cc1ccc(CNC(=O)N2CCOCC2)cc1	101.6
COc1ccccc1N1CCN(C(c2cccs2)C(C)NS(=O)(=O)c2ccc(F)cc2)CC1 (stereo not drawn)	96.6
O=C(NCC(c1cccnc1)N1CCN(c2ccccc2)CC1)OCc1ccccc1 (stereo not drawn)	87.8
CC(C)(C)C1CC(C(F)(F)F)n2nc(C(=O)O)cc2N1 (stereo not drawn)	104.1
COc1ccc(NC(=O)c2cccn(OCc3ccc(F)cc3)c2=O)cc1	97.8
Cc1nc(=O)c(-c2ccccc2)c(C)n1-c1ccccc1	98.5
Cc1nc2c3ccccc3n3c(CCCC(=O)NCCc4ccc(Cl)cc4)nnc3n2n1	89.9

Molecules shown so far containing a Cl atom (eleven):
SMILES	Vaccinia pol inh
O=c1c2ccccc2nc(-c2ccncc2)n1-c1ccc(Cl)cc1	82.3
O=S(=O)(Cc1ccc(Cl)cc1)N1C=CC(C(F)(F)F)=NCC1	81.2
Cn1c(CCN(Cc2ccco2)S(=O)(=O)c2ccc(Cl)cc2)n[nH]c1=S	94.8
O=C(Oc1ccc2oc(=O)sc2c1)c1cccc(Cl)c1	100.4
CC(C)OC(=O)COc1cc2oc(=O)c3c(c2cc1Cl)CCC3	99.8
COC(=O)C1Sc2[nH]c(=O)sc2C(c2ccc(Cl)cc2)C1C(=O)OC (stereo not drawn)	87.6
O=C(CSCc1ccc(Cl)cc1)NC1CC1	100.7
CC(OC(=O)C1CC1)C(=O)Nc1cc(C(F)(F)F)ccc1Cl (stereo not drawn)	106.7
O=NN(CCCl)C(=O)NCCCl	100.4
N=c1oc2ccc(Cl)cc2cc1C(=O)Nc1ccc(F)cc1	99.4
Cc1nc2c3ccccc3n3c(CCCC(=O)NCCc4ccc(Cl)cc4)nnc3n2n1	89.9

The results go on.
SMILES	Vaccinia pol inh
Cn1nnc(C(O)CNCc2ccc(Cl)cc2)n1 (stereo not drawn)	100.0
Cc1cc(C)c(S(=O)(=O)Cc2ccccc2)c(Cl)n1	87.3
O=c1/c(=C\c2ccccc2)sc2nncn12	92.1
CCOC(=O)c1c(C)cc(C)[nH]c1=S	100.6
NC(=O)c1csc(-c2cccnc2)n1	103.1
CCCC[n+]1c(C)csc1Nc1ccccc1	97.0
CNc1c(NC(=O)c2cccc(F)c2)c(=O)oc2ccccc12	97.5
COc1ccc(NC(=O)CSc2c[nH]c3ccccc23)cc1	100.1
CS(=O)(=O)c1nc2ccccc2[nH]1	103.2
COc1cc2c(cc1OC)C(NN)=NC(C)(C)C2	100.0
COc1cc(C(=O)Nc2c3c(nn2-c2ccc(F)cc2)CS(=O)(=O)C3)cc(OC)c1OC	93.4
O=C(CC1c2ccccc2Oc2ccccc21)NCc1ccco1	99.6
COc1ccccc1Nc1ncnc2c1cnn2-c1ccccc1	102.7
Clc1cccc2sc(N3CCCC3)nc12	96.8
Cc1nc2ccc(S(=O)(=O)CCC(=O)NCc3cccs3)cc2s1	111.5
C=CCn1c(SCC(=O)Nc2nnc(CC)s2)nnc1-c1cccs1	99.4
COc1cccc(C(CC(=O)Nc2sc3c(c2C#N)CCCC3)NC(=O)c2ccccc2)c1 (stereo not drawn)	99.6
O=S1(=O)CCN(Cc2cc3ccccc3s2)CC1	104.7
CCOc1ccc(S(=O)(=O)N(CC(=O)N2CCC(C)CC2)c2ccccc2)cc1	100.2
CCCNC(=O)c1ccc(-n2c(-c3ccccc3)cc3c2CCCC3)cc1	102.8
CCc1cc(=O)[nH]c(SCc2ccc(F)cc2)n1	105.2
CC/C(O)=C(\C#N)c1nc2ccccc2[nH]1	97.2
COc1cccc(CN2CCC(C(=O)N3CCc4ccccc4C3)CC2)c1OC	99.0
NC(=O)/C(=N/O)C1=NC2(CCCCC2)Cc2ccccc21	100.4
O=C1CC(c2ccc(S(=O)(=O)N3CCCCC3)cc2)CN1 (stereo not drawn)	100.7
CCOC(=O)NCc1ccc2[nH]c(C)cc2c1	94.1
COCCN1C(=O)/C(=C/c2cn(CC(=O)OC)c3ccccc23)C(=O)N(c2ccccc2)C1=O	100.6
Cn1c(=O)cc(OCCCC(=O)NC2CCCCC2)c2ccccc21	106.5
CSc1nnc2c(n1)OC(C)Nc1ccccc1-2 (stereo not drawn)	100.2
CC(C)(C)C(=O)COC(=O)c1cc(Br)ccc1Cl	102.0
C=CCn1c(SCC(=O)c2ccccc2)nnc1-c1sc2nc(C)cc(C)c2c1N	93.2
NC1(C(F)(F)F)Oc2cc(Cl)c(Cl)cc2O1	100.8
CCS(=O)(=O)N1CCC(C(=O)NCc2ccc(F)cc2Cl)CC1	96.3
COc1cccc(C(C(F)(F)F)P(C)(=O)O)c1 (stereo not drawn)	99.7
O=C(O)c1cccc(-c2ccc(/C=c3/sc4nc5ccccc5n4c3=O)o2)c1	100.1
CCN(C1=NC2CS(=O)(=O)CC2S1)c1ccc(OC)cc1 (stereo not drawn)	98.6
CCCn1c(=O)ccn(-c2ccccc2C)c1=O	102.1
O=C1ON=C(c2ccccc2)/C1=C/c1ccco1	100.2
Cc1ccc(CSC2=NS(=O)(=O)c3ccccc32)cc1	102.2
Cc1cc2ccccc2n1CCNC(=O)Cc1ccccc1	90.1
N#Cc1nc(-c2ccccc2F)oc1N1CCc2ccccc2C1	98.7
Cc1cc(N)n(-c2ccc(F)cc2)n1	103.4
Cc1ccccc1C1C(C#N)=C(N)SC(N)=C1C#N	99.4
O=C(COc1ccc(Br)cc1)OCC(=O)c1ccccc1	98.5
FC(F)(F)c1ccc(CSc2nccc(-c3cccnc3)n2)cc1	99.8
Cc1onc(-c2c(F)cccc2Cl)c1C(=O)N1CC(Oc2ccc(Cl)cc2)C1	105.4
CCOC(=O)c1cc(NC(=O)C2C3C=CC(O3)C2C(=O)O)cc(C(=O)OCC)c1 (stereo not drawn)	101.0
CC(NC=C1C(=O)OC(C)(C)OC1=O)C(=O)O (stereo not drawn)	98.9
CCC(=O)c1ccc(OC(=O)c2cc3cc(Br)ccc3oc2=O)cc1	103.3
Cc1cc2cc(CNC(=O)c3cccs3)ccc2[nH]1	98.1
COc1ccc(OC)c(C2C(C#N)=C(N)Oc3cc(C)oc(=O)c32)c1 (stereo not drawn)	99.9
CCOC(=O)CC1(c2ccccc2)CCOC(C)(C)C1 (stereo not drawn)	91.4
